YopH PTP inh = inhibitors of Yersinia enterocolitica YopH tyrosine phosphatase | fluorescence Ex485/Em525 | AID 898 | actives 0.16% (n = 140,000) | inhibition, %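 (about 10 µM by stock and volumes)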;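 active = inhibition of 50% or more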;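 also: controls were vehicle for no effect and minimum signal wells for full effect; inactives centre near -20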
Arbovirus anti = blocks arbovirus infection. arbovirus infection cell-based antiviral screen. inhibition, % at 10 µM. actives 0.37% (n = 200,000). AID 1251;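 active = inhibition from about 30%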;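 also: bluetongue infection of BSR cells; cell survival read as ATP light after 72 h; 0% = infected wells without compound and 100% = uninfected wells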
RecA splice inh = inhibitors of M. tuberculosis RecA intein splicing; P9WHJ3; actives 0.75% (n = 290,000); inhibition, %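 (about 9 µM by stock and volumes)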; cell-free RecA intein splicing, fluorescence; in the data active = inhibition above about 30%; inconclusive = no clear call, values can overlap the other calls;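 also: 0% = vehicle wells and 100% = reference inhibitor control wells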
Target sequence (P9WHJ3 whole entry, looked up, canonical isoform): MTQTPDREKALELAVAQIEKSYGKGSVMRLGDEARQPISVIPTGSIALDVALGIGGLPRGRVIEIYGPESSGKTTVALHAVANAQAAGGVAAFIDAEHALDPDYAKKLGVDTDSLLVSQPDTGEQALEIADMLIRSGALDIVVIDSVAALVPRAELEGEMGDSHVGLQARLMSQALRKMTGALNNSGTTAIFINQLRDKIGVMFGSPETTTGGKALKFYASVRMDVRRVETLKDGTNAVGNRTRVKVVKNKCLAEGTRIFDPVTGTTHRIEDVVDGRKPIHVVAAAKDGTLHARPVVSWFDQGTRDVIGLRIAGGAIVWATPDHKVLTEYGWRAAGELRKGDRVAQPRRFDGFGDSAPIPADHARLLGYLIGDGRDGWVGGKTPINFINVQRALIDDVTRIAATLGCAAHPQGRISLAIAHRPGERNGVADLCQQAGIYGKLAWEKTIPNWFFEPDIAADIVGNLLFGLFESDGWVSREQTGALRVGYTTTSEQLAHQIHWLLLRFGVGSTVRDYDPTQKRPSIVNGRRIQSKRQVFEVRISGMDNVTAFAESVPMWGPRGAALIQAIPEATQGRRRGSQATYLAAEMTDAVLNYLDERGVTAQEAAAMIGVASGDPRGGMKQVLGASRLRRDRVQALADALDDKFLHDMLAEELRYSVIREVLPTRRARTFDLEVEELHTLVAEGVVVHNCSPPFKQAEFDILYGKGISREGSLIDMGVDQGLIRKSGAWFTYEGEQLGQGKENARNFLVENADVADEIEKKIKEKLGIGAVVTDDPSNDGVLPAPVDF
Mtb growth = M. tuberculosis H37Rv growth inhibitors, H37Rv strain (AID 1626); M. tuberculosis H37Rv growth inhibition; higher % means a stronger effect; inhibition, % at 10 µM, or IC50 in µM where a hit was titrated; actives 0.95% (n = 220,000);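 active = confirmed in a dose series; inconclusive = inhibition above 80% but not taken into the dose series; inactive = below 80% or under 30% at every dose of the series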;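 also: bacteria incubated seven days before Alamar blue readout; 0% = bacteria only wells and 100% = bacteria with antibiotic wells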
Mtb betalactam = beta-lactam sensitization of Mtb H37Rv | actives 0.27% (n = 330,000) | AID 434955 | M. tuberculosis H37Rv growth with meropenem, percent inhibition; hits of this screen are not shown here | inhibition, % at 25 µM;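 active = about 74% or more and at least 40 points above the plate without the antibiotic, then above 30% in a dose series; inconclusive = first-round hits that could not be retested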;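 also: growth measured after seven days incubation then overnight dye step; 0% = bacteria only wells and 100% = bacteria with antibiotic; twin plates without the antibiotic show which effects depend on it; some results filed as inactive read as strong as hits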
Arbovirus anti repeat = also measured in Arbovirus anti; calls as there; inhibition, %; measured here: 10K subset replicate screen; many hits read low in the repeat;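 first of two repeat runs on a subset; 0% = infected and 100% = uninfected wells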
* hit, by the source's call; ? = inconclusive; . = not tested or not shown.

SMILES	YopH PTP inh	Arbovirus anti	RecA splice inh	Mtb growth	Mtb betalactam	others
Nc1nc(SCc2ccc([N+](=O)[O-])cc2)nc2nc3c(cc12)CCCC3	2	-5	1.6	1%	10
CC(NC(=S)NC1CCCCC1)C(c1ccccc1)N1CCOCC1 (configuration not stated)	.	17	3.4	-7%	-1
COc1ccc(/C=C/C(=O)N2CCN(C)CC2)cc1OC	.	.	-2.0	.	-2
COc1cc(C(=O)N=C2SC3CS(=O)(=O)CC3N2c2ccccc2)cc(OC)c1OC (configuration not stated)	.	.	-1.4	.	8
Cc1ccc(CSc2nc(N)cc(=O)[nH]2)cc1	.	.	-0.8	.	-3
CCN(CC)C(=O)CSC1=C(C#N)C(c2ccco2)C(C(=O)OCCOC)=C(C)N1 (configuration not stated)	-26	7	-1.0	-7%	-8
CCOC(=O)NC1Cc2ccccc2C1Sc1ccccn1 (configuration not stated)	.	.	-2.4	.	2
Cc1ccc(Cl)cc1-c1ccc(/C=N/n2cnnc2)o1	-12	1	-0.7	1%	2
COc1ccccc1CNCc1cccc(Oc2ccccc2)c1	.	6	3.5	10%	8
CC(C)Cc1nc(NCCN2CCOCC2)c(C#N)c2c1COC(C)(C)C2	20	-2	0.3	2%	-9
CCOC(=O)CCCn1nc(C)n2c(cc3sccc32)c1=O	4	-2	-1.1	-9%	-18
Cc1ccc(S(=O)(=O)NC(Cc2ccccc2)C(=O)O)cc1 (configuration not stated)	.	4	-1.2	0%	-5
COc1ccc(OC)c(CNC(=O)CCn2c(=O)c3cccn3c3ccc(F)cc32)c1	.	.	-0.5	.	6
O=C(NCCc1ccccc1Cl)c1ccc2nc3ccccc3c(=O)n2c1	.	.	-0.6	.	8
COc1ccccc1-n1c(Cc2cccs2)n[nH]c1=S	.	3	-2.4	4%	1
COC(=O)NNC(=O)Cc1cccc2ccccc12	-28	1	-1.8	1%	-6
Cc1ccc(NC(=O)NCCCN2CCCC2=O)cc1Cl	.	.	0.6	.	-13
COc1ccc(CCNS(=O)(=O)c2ccc(F)cc2)cc1OC	-24	3	0.2	-2%	9
COc1ccc(NC(=O)C2CCCN(S(=O)(=O)c3cccnc3)C2)cc1 (configuration not stated)	-29	5	-0.2	0%	1
CC1CC(C)CN(Cc2nc(N)nc(Nc3ccc4ccccc4c3)n2)C1 (configuration not stated)	-3	-19	-0.6	50%	45

The last two compounds of the section above open the next one:
SMILES	YopH PTP inh	Arbovirus anti	RecA splice inh	Mtb growth	Mtb betalactam	others
COc1ccc(NC(=O)C2CCCN(S(=O)(=O)c3cccnc3)C2)cc1 (configuration not stated)	-29	5	-0.2	0%	1
CC1CC(C)CN(Cc2nc(N)nc(Nc3ccc4ccccc4c3)n2)C1 (configuration not stated)	-3	-19	-0.6	50%	45
COC(=O)c1cc(OC)c(OC)cc1NC(=S)N1CCN(C)CC1	-16	4	-0.9	3%	79
O=C(CSc1cccc[n+]1[O-])Nc1cccc(Oc2ccccc2)c1	.	-2	-0.4	-1%	-2
CCN(CC(=O)NC1CCS(=O)(=O)C1)S(=O)(=O)c1cc(Br)ccc1Br (configuration not stated)	.	.	-1.6	.	-8
COc1cccc2cc(CC(=O)c3ccc(C)c(C)c3)c(=O)oc12	.	.	-1.4	.	5
O=C(c1ccccc1F)N1CCN(c2ncccn2)CC1	6	5	.	-8%	6
Fc1ccc2[nH]c3c(N4CCc5ccccc5C4)ncnc3c2c1	.	.	.	4%	-6
COC(=O)C(C)NC(=O)C12CC3CC(C1)CC(c1ccc(C)cc1)(C3)C2 (configuration not stated)	.	.	0.5	.	-11
Cc1ccccc1NC(=O)COc1ccccc1C	.	.	-3.2	.	-5
Cn1c(Cn2c(=O)sc3ccccc32)nnc1SCC(=O)Nc1ccccc1F	-16	5	-1.2	-3%	-1	Arbovirus anti repeat=0
C=CCN1C(=O)S/C(=C\c2ccc(N3CCOCC3)cc2C)C1=O	-1	-3	-1.6	-4%	1
CCN1CCN(CCNC(=O)c2ccc3c(c2)N(Cc2ccc(F)cc2)C(=O)/C(=C/c2ccccc2)S3)CC1	.	-30	8.0	2%	98
CCOC(=O)c1cc(C#N)c(Oc2ccccc2)nc1-c1ccccc1	-28	-11	15	12%	-5
Cc1ccc(-n2cc(CN(C)Cc3nccn3C)c(-c3cccc(C)c3)n2)cc1	.	-23	4.8	9.8µM*	99
COc1cccc(C(=O)COC(=O)c2ccc(NC(=O)c3ccccc3)cc2)c1	-37	.	-1.9	3%	2
O=C(Nc1cccc2ncccc12)c1ccccc1Cl	.	.	-1.0	.	0
CN1CCN(C(c2cccc(C(F)(F)F)c2)c2nnnn2C(C)(C)C)CC1 (configuration not stated)	-180	1	-0.5	16%	-2
Cc1noc(C)c1-c1nc(CSc2ccc(Cl)cc2)no1	.	.	1.6	3%	-2
Cc1cc(Oc2ccccc2)nc(N)n1	-21	-3	-1.6	-2%	-3
COc1ccc(C(=O)/C=C/Nc2cc(C)on2)cc1	0	-3	-2.6	-1%	0	Arbovirus anti repeat=0
CCCCCn1c(=O)[nH]c2cc(C(=O)N3CCN(CC)CC3)ccc2c1=O	-32	6	-0.6	-5%	-1
CCN(C(=O)CN1C(=O)COc2ccc(S(=O)(=O)N3CCCCCC3)cc21)c1cccc(C)c1	.	.	0.5	.	4
COc1nc2ccccc2c(=O)n1-c1ccc(C)cc1	-10	-6	0.3	9%	5
Cc1ccc(-c2ccc(/C=N/NC(=S)Nc3ccccc3)o2)cc1[N+](=O)[O-]	-40	-13	-2.8	1%	24
COc1cc(C(=O)NCCCn2ccnc2)cc(OC)c1OC	.	-3	-0.1	3%	-4
C/C(=N\NC(N)=O)c1ccccc1Cl	.	.	3.2	4%	-5
O=C(c1ccccc1)c1ccc(N2CCCC2)cc1	5	4	0.2	-6%	39	Arbovirus anti repeat=-1
CN1C(=O)c2cccc3c(Cl)ccc(c23)C1=O	-21	12	-1.1	7%	5
CC(C)=NNc1nc2c(c(=O)[nH]c(=O)n2C)n1CCCc1ccccc1	.	.	-3.8	.	-2
COC(=O)c1ccccc1NC(=O)c1cc2nc(C3CC3)cc(C(F)(F)F)n2n1	-20	29	-1.3	1%	0
Cc1ccccc1-c1nnc(SCC#N)o1	.	-7	-4.2	-5%	-2
COc1cc2[nH]c(=O)n(Cc3ccc(C(=O)NCC4CCCO4)cc3)c(=O)c2cc1OC (configuration not stated)	-36	5	-0.9	.	-1	Arbovirus anti repeat=4
Cc1ccccc1NC(=S)NCc1ccco1	-31	2	-2.4	-8%	8
O=C(Nc1ccccc1)N(CCCN1CCOCC1)Cc1cccs1	-49	2	-0.6	-3%	-3	Arbovirus anti repeat=-1
CC1C=CCC2C(=O)N(c3ccc(Cl)cc3O)C(=O)C12 (configuration not stated)	-33	-23	-2.7	11%	0
C=CCn1c(Cc2csc(N)n2)nnc1SCC(=O)Nc1ccccc1C(F)(F)F	-6	5	1.2	-1%	-7
COc1ccc(CCNC(=O)CSCC(=O)Nc2ccccc2)cc1OC	.	.	-0.2	2%	-7
OCCC1CN(Cc2cnc(-c3cccc4ccccc34)nc2)CCN1C1CCCCC1 (configuration not stated)	.	-13	-0.4	0%	-3
Cc1ccccc1-n1nnnc1SCc1ncc(-c2ccccc2)o1	-11	-1	12	.	3
Cc1nc(NC(=O)CN2CCCCC2)sc1C(=O)N(C)C	.	.	-0.3	.	0
CCCOc1ccc(Cn2c(=O)oc3ccc(C)cc32)cc1OC	12	-3	0.5	2%	6

Sorted by number of heavy atoms (rising): part of the list above.
SMILES	YopH PTP inh	Arbovirus anti	RecA splice inh	Mtb growth	Mtb betalactam	others
CC1C=CCC2C(=O)N(c3ccc(Cl)cc3O)C(=O)C12 (configuration not stated)	-33	-23	-2.7	11%	0
Cc1nc(NC(=O)CN2CCCCC2)sc1C(=O)N(C)C	.	.	-0.3	.	0
COc1ccc(CCNC(=O)CSCC(=O)Nc2ccccc2)cc1OC	.	.	-0.2	2%	-7

New compounds follow.
SMILES	YopH PTP inh	Arbovirus anti	RecA splice inh	Mtb growth	Mtb betalactam	others
Cn1c(=O)c2c(nc(CN3CCc4ccccc4C3)n2Cc2ccccc2F)n(C)c1=O	-8	4	6.7	5%	8
c1cnc(SCCOc2ccc3c(c2)CCC3)nc1	2	8	2.6	2%	1
CC(Sc1ncnc2ccccc12)C(=O)Nc1ccc2c(c1)OCCO2 (configuration not stated)	-35	22	3.3	3%	1
COc1cc(/C=N/NC(=O)c2sc(N)c(C#N)c2C)cc(Br)c1O	-42	-9	2.3	.	6
Cc1cc(C)cc(OCC(=O)O/N=C(\N)c2cccnc2)c1	.	.	3.2	4%	.
CC(C)c1nnc(NC(=O)CCC(=O)NCc2ccco2)s1	-40	5	-0.4	-15%	5
COCCOc1ccc(C(F)(F)F)cc1N	.	-4	1.2	-12%	-1
COc1ccc2c(c1)c(C(=O)O)c(C)n2CC(C)C	-41	3	-2.5	0%	-4
CN1CCN(NC(=O)c2cccc(F)c2)CC1	-41	10	1.8	-3%	-5
Cn1c(=O)c2nc3ccccc3nc2n(C)c1=O	.	0	-7.0	3%	5
COc1cccc(C2(O)CCN(CC(=O)NCC3CC3)CC2)c1	.	-2	0.5	-2%	-4
O=C(CSc1nnc2c(n1)[nH]c1ccc(F)cc12)NCc1ccc(F)cc1	.	.	0.0	.	-3
O=[N+]([O-])c1ccccc1CNC(Cc1ccccc1)c1ccccc1 (configuration not stated)	-16	-2	5.4	9%	9
CSc1ccc(S(=O)(=O)Nc2c(C)n(C)n(-c3ccccc3)c2=O)cc1	.	.	1.0	.	3
O=c1c2ccccc2nc2c3ccccc3c(Cl)nn12	.	2	2.1	24%	.
O=C(CSc1ncnc2c1cnn2-c1ccc(Cl)cc1)NCc1ccc2c(c1)OCO2	-14	-19	-1.3	-1%	9
O=C(CCN1CCOCC1)c1ccc(Br)cc1	.	-6	3.6	-5%	99
CN(Cc1ccc(F)cc1)S(=O)(=O)c1nnc(NC(=O)c2ccccc2)s1	.	.	-2.6	.	2
COc1cc2nc(Nc3ccc(C)c(C)c3)nc(N)c2cc1OC	.	.	5.1	.	98
COc1cccc2cc(C(=O)N3CCc4ccccc4C3)c(=O)oc12	-23	1	2.5	-1%	-10

Gathered by group: the entries above with a COOH group (two)
SMILES	YopH PTP inh	Arbovirus anti	RecA splice inh	Mtb growth	Mtb betalactam	others
Cc1ccc(S(=O)(=O)NC(Cc2ccccc2)C(=O)O)cc1 (configuration not stated)	.	4	-1.2	0%	-5
COc1ccc2c(c1)c(C(=O)O)c(C)n2CC(C)C	-41	3	-2.5	0%	-4

Returning to the listing, starting two compounds before the break.
SMILES	YopH PTP inh	Arbovirus anti	RecA splice inh	Mtb growth	Mtb betalactam	others
COc1cc2nc(Nc3ccc(C)c(C)c3)nc(N)c2cc1OC	.	.	5.1	.	98
COc1cccc2cc(C(=O)N3CCc4ccccc4C3)c(=O)oc12	-23	1	2.5	-1%	-10
Cc1cc(SCC(=O)OCC(=O)NCC2CCCO2)c(C)cc1Br (configuration not stated)	.	20	-1.5	-7%	-4
O=C(Cc1ccc(Br)c2ccccc12)N/N=C/c1ccccn1	.	-22	4.0	?	94
COc1cc(S(=O)(=O)NCCc2ccc3c(c2)OCO3)ccc1-n1cnnn1	-13	6	-2.8	5%	3
COc1ccc(OC)c(-n2c(SCC(=O)NCc3ccco3)nnc2-c2c[nH]c3ccccc23)c1	-21	-2	0.0	2%	-2
O=[N+]([O-])c1ccc(N/N=C2\CC3CC=CC23)c([N+](=O)[O-])c1 (configuration not stated)	.	15	11	3%	-4
CC(C)c1ccccc1NC(=S)NCc1nc2ccccc2[nH]1	.	2	-0.4	5%	1
CN(C)S(=O)(=O)c1cccc(C(=O)OCC(=O)N2CCCC2=O)c1	.	.	-2.3	.	2
COc1ccc2[nH]c3ccc(OC)cc3c2c1	-26	-4	1.6	5%	0
O=C(COC(=O)c1n[nH]c2ccccc12)c1cc(F)ccc1F	.	-3	-1.4	-5%	-5
CCOC(=O)COc1cccc2c(=O)n(CC(=O)N3CCCc4ccccc43)ccc12	-53	-2	-5.6	-2%	-5
Cc1onc(-c2ccccc2)c1C(=O)N/N=C/c1cccc(O)c1	-8	3	-0.8	5%	-6
CC(=O)c1ccc(OCc2cc(C(=O)N3CCCCC3c3cccnc3)no2)cc1 (configuration not stated)	.	.	1.6	.	-1
COc1ccc(C(CNC(=O)Cc2c(F)cccc2Cl)N2CCCCC2)cc1 (configuration not stated)	.	6	1.4	2%	-6
COc1ccc(-c2onc(C)c2-c2ccccc2)c(O)c1	-14	5	4.1	-16%	61
O=C(COC(=O)c1ccco1)c1ccc(F)cc1	.	.	-2.4	.	-4
COc1cc2nc(Cl)nc(NCCO)c2cc1OC	.	.	-4.4	-1%	3
Cc1ccc(NC(=O)C(C)N2CCCC2)cc1Cl (configuration not stated)	.	-6	0.3	9%	-3
COc1ccc(Nc2nc3nonc3nc2N2CCCCC2)cc1	.	.	0.8	-9%	-6
COc1cccc(C(O)c2nc3ccccc3n2C)c1 (configuration not stated)	.	.	-1.4	.	-4

Source: PubChem

Only part of the results is shown. The share of hits here may be higher or lower than overall.
